Assay outcomes (PubChem)
Rango release inh: prevents RanGTP from dissociating the Rango-importin beta complex; O95149+P62826; Biochemical FRET Rango-importin beta, RanGTP-induced dissociation; Potency, µM (top dose mostly 46.1 µM), for inactives: at the highest dose activity change, negative = inhibition; 340,000 tested, 0.071% active; active means falling FRET ratio curve, often poorly fitted, with flat reads before Ran was added; inconclusive means other falling curves, or compound fluorescence or quenching; inactive means flat or rising ratio curve;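 also: potency is read from the fitted curve at half-maximal effect; % of control where 0% means no effect; nearly all actives have a fitted effect of over 45% in size; -100% = wells without RanGTP and RCC1; the record marks most hits as doubtful in a second field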
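Recombinant Rango FRET biosensor (EYFP–snurportin 1 IBB–cerulean CFP10) at 0.1 uM premixed with 0.25 uM importin beta in PBS, 1 mM DTT, 0.02% Tween-20, 0.1% BSA. Compound added 5 min; RanGTP-RCC1 (0.6 uM Ran, 2 mM GTP, 0.2 uM RCC1) then triggers release, read at 45 min.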
Rango-impB inh: Rango-importin beta binding inhibition; Q14974; Rango CFP/YFP FRET sensor + importin beta, 45 min; Potency, µM (titrated, usually from 92.2 µM), for the others: top-dose inhibition of complex formation; 340,000 tested, 0.031% active; active = rising FRET ratio curve, often small or poorly fitted; inconclusive = mostly compound fluorescence or quenching in the first reads; inactive = flat curves in all reads;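 also: potency is read from the fitted curve at half-maximal effect; 0% = DMSO wells and 100% = buffer wells lacking importin beta; nearly all actives have a fitted effect of over 15% in size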
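FRET biosensor (snurportin 1 IBB flanked by EYFP and cerulean), 50 nM, with compound 5 min, then 0.125 microM importin beta in PBS, 1 mM DTT, 0.02% Tween-20, 0.1% BSA. CFP/YFP ratio read after 45 min at room temperature; pre-read flags interference.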
miR-21 FLuc: miR-21 reporter, rising signal. 340,000 tested, under 10 active. HeLa miR-21 FLuc reporter, luciferase, 48 h. Potency, µM (highest dose often 38.3 µM), inactives show top-dose reporter change, positive = more light; active = well fitted rising curve with a large enough effect; inconclusive = small, poorly fitted or top-dose-only effect; inactive = no such curve, though single readings can be large or run the other way;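 also: % of control where 0% means no effect; miR-21 action dims this reporter so a rising signal means less miR-21 action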
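Luminescence from a firefly luciferase reporter carrying a miR-21 binding site downstream, stably expressed under a CMV promoter in HeLa cells that make miR-21 endogenously, reports miRNA modulation after 48 h compound exposure up to approximately 40uM final.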
GLA inh pH 4.5: blocks human alpha-galactosidase A at pH 4.5; purified enzyme, 4-MU-alpha-Gal fluorescence, pH 4.5; activity change, negative = inhibition, % at 105 µM; P06280; 230,000 tested, under 10 active; inconclusive = small, poorly fitted or top-dose-only inhibition, or a rising curve; inactive = flat fitted curve, though single readings scatter; no compound was filed as active;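 also: 0% = full activity with enzyme and -100% = basal without enzyme; dose as in the result columns while the protocol names 77 µM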
Target sequence (P06280 whole entry, looked up): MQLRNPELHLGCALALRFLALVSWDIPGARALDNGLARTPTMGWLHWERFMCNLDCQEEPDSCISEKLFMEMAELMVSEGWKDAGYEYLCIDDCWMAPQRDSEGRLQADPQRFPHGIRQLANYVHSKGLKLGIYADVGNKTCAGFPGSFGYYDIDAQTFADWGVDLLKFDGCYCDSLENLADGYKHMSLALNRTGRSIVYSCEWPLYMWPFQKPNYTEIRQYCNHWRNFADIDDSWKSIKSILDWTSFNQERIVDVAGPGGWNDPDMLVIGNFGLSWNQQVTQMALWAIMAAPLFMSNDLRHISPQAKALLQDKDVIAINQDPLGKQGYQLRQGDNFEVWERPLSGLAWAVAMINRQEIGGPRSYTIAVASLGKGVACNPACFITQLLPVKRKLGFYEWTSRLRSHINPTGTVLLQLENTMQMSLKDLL
* marks the source's active call; other numbers are inactive results; ? = inconclusive; · = no result given; & = joins results of further samples.

Rango release inh	Rango-impB inh	miR-21 FLuc	GLA inh pH 4.5	mol
0%	-2.2%	-2%	-4	CC(=O)c1cccc(NC(=O)CN2C(=O)COc3ccc(Cl)cc32)c1
12%	-0.1%	-8%	8	Cc1ccnc(NS(=O)(=O)c2ccc(NC(=O)c3ccc(Br)o3)cc2)n1
9%	1.3%	-8%	1	CCOc1ccc(NC(=O)CSc2nc3ccccc3c(=O)n2Cc2cccs2)cc1
2%	-0.1%	·	·	O=C1CCC(CCc2nc3ccccc3[nH]2)(c2ccccc2)C(=O)N1 (stereo not drawn)
-4%	-1.9%	-1%	-13	Fc1ccc(-n2c(Cc3cccs3)n[nH]c2=S)cc1Cl
-20%	?	-3%	2	Cc1sc(N/N=C/c2cccnc2)nc1-c1ccccc1
6%	-0.8%	-87%	-13	Cc1ccc(-c2cn(-c3ccccc3)c(SCC(=O)NC3CCS(=O)(=O)C3)n2)cc1C (stereo not drawn)
2%	2.3%	1%	1	C1CSC2(N1)C1CC3CC(C1)CC2C3 (stereo not drawn)
-14%	0.1%	-2%	5	O=C(CN1C(=O)CSc2ccccc21)N/N=C/c1ccco1
1%	-5.5%	-3%	-25	N#Cc1nc(-c2ccco2)oc1N1CCC(Cc2ccccc2)CC1
7%	-2.3%	·	·	CSCCC(NC(=O)c1ccc(Cl)cc1Cl)C(=O)N1CCCCCCC1 (stereo not drawn)
?	?	-19%	-9	CCCOC(=O)C1=C(C)N(C)C(=O)NC1c1cc2c(cc1[N+](=O)[O-])OCO2 (stereo not drawn)
-3%	-0.1%	-3%	·	CCC(=O)OCC(=O)N=c1sccn1Cc1ccccc1Cl
-6%	-3.0%	2%	?	CCOP(=O)(OCC)C(C)(C)NC(=O)c1cc([N+](=O)[O-])cc([N+](=O)[O-])c1
-1%	4.9%	28%	-10	CC(C)(C)c1ccc(-c2cc(N)n[nH]2)cc1
11%	-0.4%	-2%	-2	Fc1ccc(C2CC(c3ccccc3)n3ncnc3N2)cc1 (stereo not drawn)
-7%	?	-10%	-5	CCOc1ccc(C2/C(=C(/O)c3ccc(OC)cc3)C(=O)C(=O)N2c2cc(C)on2)cc1OC (stereo not drawn)
-10%	0.8%	?	4	Clc1ccc(OCc2nnc(SCc3nc4ccccc4[nH]3)n2Cc2ccco2)cc1
1%	0.3%	0%&-5%	-2	CC(C)CCNC(=O)CCC(=O)NNc1nc2ccccc2c2nc(-c3ccccc3)nn12
-13%	-0.8%	18%	-1	C/C(=N\NC(=O)c1ccccc1)c1nc2ccccc2n1C
15%	-2.1%	17%	·	CCC(C(=O)NCCc1ccc(C)cc1)n1nc(C)c2c(C)n(-c3ccccc3)nc2c1=O (stereo not drawn)
0%	-1.5%	·	·	O=C(Nc1cc(C(F)(F)F)ccc1N1CCCC1)C1=COCCO1
6%	1.1%	-4%	-6	COc1cccc(C2=NN(C(=O)c3ccccc3)C(O)(C(F)(F)F)C2)c1 (stereo not drawn)
3%	-2.9%	0%	10	O=C(CN1CCC(N2CCCCC2)CC1)N1CCCc2ccccc21
?	?	-43%	-5	Brc1ccccc1C1CC(c2ccccc2)=Nc2ccccc2N1 (stereo not drawn)
7%	-0.1%	-4%	10	O=S(=O)(Nc1ccc(S(=O)(=O)Nc2nccs2)cc1)c1ccc2c(c1)OCCO2
·	·	11%	-3&-15	COc1ccc2c(c1)O[C@@H](c1cccc(C(F)(F)F)c1)[C@H](OC(=O)N[C@H]1CCCc3ccccc31)C2=O
1%	2.9%	0%&0%	-1&-1	O=C(COC(=O)CCc1ccc(S(=O)(=O)N2CCOCC2)cc1)Nc1ccc(Cl)cn1
3%	-1.2%	-18%	4	COc1ccc(NC(=O)Nc2ccccc2F)cc1
-6%	-0.1%	-43%	·	Cc1cccc(NC(=S)NC(=O)c2oc3ccccc3c2C)n1
1%	-4.5%	?	·	Oc1ccc(CCNc2ncnc3ccc(Cl)cc23)cc1
3%	-1.2%	-1%	3	Cn1c(SCC(=O)NC(=O)NCc2ccco2)nnc1-c1ccccc1
6%	-4.2%	15%	-9	CCn1cc(C(=O)NCc2ccco2)c(=O)c2cc(F)c(N3CCN(C(=O)c4ccco4)CC3)cc21
-3%	-1.1%	-12%	9	Cc1cc(NC(=O)C2CC(c3ccccc3Cl)=NO2)no1 (stereo not drawn)
0%	2.8%	-1%	1	Cc1ccc(-n2c(CSc3nc(C)cc(C)n3)nnc2SCC(=O)Nc2nccs2)cc1
-6%	1.6%	-3%	·	CC(C)Cc1cc(CNC(=O)C2CCC(=O)N(Cc3cccc(C(F)(F)F)c3)C2)on1 (stereo not drawn)
·	·	0%	7	CCc1noc(C)c1C(=O)Nc1nnc(C2CCCCC2)s1
-6%	1.3%	5%	-1	Cc1ccc(C)c(N2CCN(C(=O)c3cc4sccc4n3C)CC2)c1
-1%	-0.2%	-4%	13	Cn1c(=O)c2c(O)cc(=O)n(-c3ccccc3)c2n(C)c1=O
-5%	-2.2%	-11%	8	Cc1cc2ncn(C(=O)c3ccc4c(c3)OCO4)c2cc1C

Five neighbouring entries already listed:
Rango release inh	Rango-impB inh	miR-21 FLuc	GLA inh pH 4.5	mol
6%	-4.2%	15%	-9	CCn1cc(C(=O)NCc2ccco2)c(=O)c2cc(F)c(N3CCN(C(=O)c4ccco4)CC3)cc21
-3%	-1.1%	-12%	9	Cc1cc(NC(=O)C2CC(c3ccccc3Cl)=NO2)no1 (stereo not drawn)
0%	2.8%	-1%	1	Cc1ccc(-n2c(CSc3nc(C)cc(C)n3)nnc2SCC(=O)Nc2nccs2)cc1
-6%	1.6%	-3%	·	CC(C)Cc1cc(CNC(=O)C2CCC(=O)N(Cc3cccc(C(F)(F)F)c3)C2)on1 (stereo not drawn)
·	·	0%	7	CCc1noc(C)c1C(=O)Nc1nnc(C2CCCCC2)s1

Quoted at random: three compounds from above, in no set order.
Rango release inh	Rango-impB inh	miR-21 FLuc	GLA inh pH 4.5	mol
-5%	-2.2%	-11%	8	Cc1cc2ncn(C(=O)c3ccc4c(c3)OCO4)c2cc1C
6%	-4.2%	15%	-9	CCn1cc(C(=O)NCc2ccco2)c(=O)c2cc(F)c(N3CCN(C(=O)c4ccco4)CC3)cc21
-3%	-1.1%	-12%	9	Cc1cc(NC(=O)C2CC(c3ccccc3Cl)=NO2)no1 (stereo not drawn)

Next entries:
Rango release inh	Rango-impB inh	miR-21 FLuc	GLA inh pH 4.5	mol
12%	0.4%	5%	·	CCCNC(=O)COc1coc(CN2CCN(c3cccc(Cl)c3)CC2)cc1=O
-11%	0.2%	8%	7	Cc1ccc(C)c(N(C(=O)c2snc(C(N)=O)c2N)C(C(=O)NCC2CCCO2)c2cccs2)c1 (stereo not drawn)
3%	-1.5%	-5%	·	C=CCn1c(CCc2ccccc2)nnc1SCC(N)=O
1%	3.3%	-23%	-11	O=C(c1cc2ccccc2o1)N1CCCC1
·	·	1%	-5	O=c1c2ccccc2[nH]c(=S)n1CCN1CCC(=C(c2ccc(F)cc2)c2ccc(F)cc2)CC1
1%	-1.8%	0%	13	COC(=O)c1sc(NC(=O)CSc2nc3cccnc3n2C2CCCCC2)nc1C
3%	1.9%	2%	·	CC1(C)CC(=O)C=C(C(=O)N2CCCC(C(=O)c3cccc(C(F)(F)F)c3)C2)O1 (stereo not drawn)
-3%	-4.0%	1%	·	O=C(NC1CC2CCCC(C1)N2C(=O)Nc1ccc(F)cc1)c1ccccc1 (stereo not drawn)

Six entries out of the list above, sorted by the number in miR-21 FLuc, descending:
structure	miR-21 FLuc
Cc1ccc(C)c(N(C(=O)c2snc(C(N)=O)c2N)C(C(=O)NCC2CCCO2)c2cccs2)c1 (stereo not drawn)	8%
CCCNC(=O)COc1coc(CN2CCN(c3cccc(Cl)c3)CC2)cc1=O	5%
CC1(C)CC(=O)C=C(C(=O)N2CCCC(C(=O)c3cccc(C(F)(F)F)c3)C2)O1 (stereo not drawn)	2%
O=c1c2ccccc2[nH]c(=S)n1CCN1CCC(=C(c2ccc(F)cc2)c2ccc(F)cc2)CC1	1%
COC(=O)c1sc(NC(=O)CSc2nc3cccnc3n2C2CCCCC2)nc1C	0%
C=CCn1c(CCc2ccccc2)nnc1SCC(N)=O	-5%

Among those listed so far, 2 have a nitro group on carbon:
Rango release inh	Rango-impB inh	miR-21 FLuc	GLA inh pH 4.5	mol
?	?	-19%	-9	CCCOC(=O)C1=C(C)N(C)C(=O)NC1c1cc2c(cc1[N+](=O)[O-])OCO2 (stereo not drawn)
-6%	-3.0%	2%	?	CCOP(=O)(OCC)C(C)(C)NC(=O)c1cc([N+](=O)[O-])cc([N+](=O)[O-])c1

Next results
Rango release inh	Rango-impB inh	miR-21 FLuc	GLA inh pH 4.5	mol
0%	2.8%	-6%	·	COc1cccc(CN2CC(C(=O)N(C)Cc3[nH]c4ccccc4c3C)CCC2=O)c1 (stereo not drawn)
-18%	-2.8%	·	0	CCN1C(=O)N[C@@H](c2ccco2)C(C(=O)OC)=C1C
-10%	-5.2%	-13%	5	CN1CCN(C(=O)CCn2nc(-c3ccccc3)c3ccccc3c2=O)CC1
31%	?	4%	-5	CC(NC(=O)COC(=O)c1cc(=O)[nH]c2ccccc12)c1ccccc1 (stereo not drawn)
-11%	7.6%	-25%	-1	Cc1ccc2c(CSc3nc4ccccc4c(=O)n3CCCO)cc(=O)oc2c1C
-10%	-3.4%	-2%	·	Cc1ccc2c(c1)N(C(=O)CCC(=O)NCCCN1CC(C)CC(C)C1)CCO2 (stereo not drawn)
-10%	2.5%	-13%	5	Brc1ccc(-c2cn3ccccc3n2)s1
2%	2.6%	·	·	CCCCNC(=O)c1ccccc1SCC(=O)NC1CCCCCCC1
-7%	2.2%	·	·	O=C(CC1Sc2ccccc2NC1=O)NNc1cccc(Cl)c1Cl (stereo not drawn)
-12%	-2.3%	18%	-11	CC(C)(C)C1CCC2(CC1)C(C#N)=C(SCC(=O)NC1CCCCC1)NC(=O)C2C#N (stereo not drawn)
1%	-1.5%	14%	·	COc1ccc(-c2cn[nH]c2-c2ccc(OC)cc2)cc1
-9%	1.0%	-3%	-21	Cc1occc1-c1nnc(SCC(=O)NC2CCCC2)n1-c1ccccc1
11%	6.6%	-12%	1	COc1ccc(NC(=O)COC(=O)c2ccc(O)cc2)c([N+](=O)[O-])c1
0%	6.7%	-4%	·	CC1=NN(C(C#N)c2ccccc2C)C(c2ccccc2)C1 (stereo not drawn)
11%	-3.0%	-2%	4	CC(C(=O)Nc1sc2c(c1C(=O)NCC1CCCO1)CCC2)N1C(=O)c2ccccc2C1=O (stereo not drawn)
17%	-1.9%	-1%	0	Cc1ccc(C)c(S(=O)(=O)N2CCN(CC(=O)Nc3cc(C)on3)CC2)c1
20%	0.1%	1%	-10	Cc1nc(NC(=O)C23CCC(C)(C(=O)O2)C3(C)C)sc1C (stereo not drawn)
6%	-3.1%	-2%	2	COc1ccc(/C=C(\C#N)C(=O)OCC(=O)N2CC(C)OC(C)C2)cc1 (stereo not drawn)
0%	-3.9%	-2%	5	Cc1ccc(NC(N)=S)cc1
2%	1.5%	-7%	9	Cn1c(SCC(=O)Nc2ccc(F)cc2F)nnc1-c1cccnc1
29%	-0.1%	-4%	·	CCOC(=O)COc1ccc(/C=C2/C(=O)NN(c3ccc(F)cc3)C2=O)cc1OC
14%	-4.4%	-10%	·	COc1ccc(OC)c(/C=N/NC(=S)NCCc2ccccc2)c1
14%	2.4%	-5%	·	O=C(OCc1ccc([N+](=O)[O-])cc1Cl)c1cnccn1

Some of the compounds tested (hit frequency here may not be typical).
